Compound activity: PubChem, Southern Research Institute
Mtb H37Rv = Mycobacterium tuberculosis H37Rv growth inhibition, putative kinase inhibitor library, confirmatory dose response (AID 2842) | 5.2% of 24,000 active | M. tuberculosis H37Rv growth inhibition; higher % means a stronger effect; some inactives read as strong as hits | inhibition, % at 10 µg/mL, or IC90 in µg/mL where a hit was titrated;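 active means confirmed in a dose series; inconclusive means mostly over 85% at the one dose but not retested; inactive means below 85% or not confirmed; about a fifth of its hits are not listed in these tables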;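 further: bacteria incubated one week before Alamar blue readout; 0% = bacteria only wells and 100% = bacteria with high antibiotic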
Active calls of the source: *. Some of the compounds tested, so the mix of outcomes need not match the whole.

Screening CCOC(=O)C(C)Sc1nc2c([nH]c3ccccc32)c(=O)n1-c1cccc(OC)c1 (stereo unspecified) returned Mtb H37Rv 34%.
For Cc1nc2ccc3nc(NC(=O)/C=C/c4ccccc4Cl)sc3c2s1 the results were Mtb H37Rv 2%.
Screening CC(C)CC(=O)Nc1c(C(=O)Nc2ccc(F)c(F)c2)oc2ccccc12 returned Mtb H37Rv -7%.
Screening COc1ccc(C(=O)Nc2nc3c(s2)CC(C)CC3)cc1 (stereo unspecified) returned Mtb H37Rv inconclusive.
Screening CCc1ccccc1NS(=O)(=O)c1cc2c3c(c1)CCN3C(=O)CC2 returned Mtb H37Rv -7%.
O=C(Nc1nnc(-c2ccc3c(c2)CCCC3)o1)c1cc(Cl)sc1Cl was read as Mtb H37Rv 3.5µg/mL*.
O=C(c1ccco1)N1CCN(C(=O)c2cc3cc([N+](=O)[O-])ccc3oc2=O)CC1 was read as Mtb H37Rv -10%.
Screening CCN(CC)CCN1C(=O)C(=O)/C(=C(/O)c2ccncc2)C1c1cccc(F)c1 (stereo unspecified) returned Mtb H37Rv -4%.
CCOCCn1c(SCC(=O)OCC)nc2c1c(=O)[nH]c(=O)n2C was read as Mtb H37Rv -25%.
Screening COc1ccc(C(c2sc3ncnn3c2O)N2CCCC(C)C2)cc1OC (stereo unspecified) returned Mtb H37Rv -9%.
Screening O=C(CCN1C(=O)/C(=C\c2ccc(Cl)cc2)SC1=S)Nc1ccc(O)cc1 returned Mtb H37Rv -13%.
Screening Nc1nc(SCC(=O)Nc2ccc(Br)cc2)[nH]c(=O)c1NC(=O)c1ccc(Br)cc1 returned Mtb H37Rv -5%.
For Cc1ccccc1NC(=O)CSc1ccc2nnc(-c3ccccc3)n2n1 the results were Mtb H37Rv 1%.
`O=C(OCn1nnc2ccccc2c1=O)c1cccs1` gave Mtb H37Rv 4.3µg/mL*.
For CC(=O)c1ccc(NC(=O)c2ccc(-c3ccccc3C(F)(F)F)o2)cc1 the results were Mtb H37Rv 25%.
CCCCc1ccc(NC(=O)Cn2cnc3c(cnn3-c3ccccc3)c2=O)cc1 was read as Mtb H37Rv -1%.
CCOc1ccccc1N/C=C(\C#N)c1nc(-c2cc3ccccc3oc2=O)cs1 was read as Mtb H37Rv -4%.
CCOc1ccc(-c2nnc3ccc(SCc4cccnc4)nn23)cc1 was read as Mtb H37Rv 6%.
N=c1c(C(N)=O)cc2c(=O)n3ccccc3nc2n1C1CCCC1 was read as Mtb H37Rv 7%.
For Cc1ccccc1OCC(=O)NC1CC(=O)N(c2ccc(F)cc2)C1 (stereo unspecified) the results were Mtb H37Rv 7%.
For COc1cccc2cc(-c3csc(Nc4ccc(Cl)cc4)n3)c(=O)oc12 the results were Mtb H37Rv 0%.
For COc1cccc(OCC(=O)NC2CC(=O)N(c3cccc(F)c3)C2)c1 (stereo unspecified) the results were Mtb H37Rv -8%.
`CCCC(CCC)C(=O)NCCc1cc2c(OC)ccc(OC)c2[nH]c1=O` gave Mtb H37Rv -8%.
`CCc1ccc(-c2nnc3c4cc5c(cc4n(Cc4ccc(C)cc4)cc2-3)OCCO5)cc1` gave Mtb H37Rv 15µg/mL*.
`COc1ccc(Cl)cc1C(=O)Nc1nnc(-c2ccccc2C)s1` gave Mtb H37Rv 7%.
Screening CC1=NNc2nc3c(c(=O)[nH]c(=O)n3C)n2C1 returned Mtb H37Rv 19%.
N#C/C(C(=O)NCc1ccccc1)=C1/SC(Cc2ccc(Br)cc2)C(=O)N1c1ccc(F)cc1 (stereo unspecified) was read as Mtb H37Rv 1%.
COc1ccccc1C1CC(=O)NC(SCC(N)=O)=C1C#N (stereo unspecified) was read as Mtb H37Rv 8%.
`O=C(Nc1ccc2ccccc2c1)c1cc2ccccc2oc1=O` gave Mtb H37Rv -5%.
CSc1nc(N)c(NC(=O)c2ccc(F)c(F)c2)c(=O)[nH]1 was read as Mtb H37Rv 2%.
COc1ccccc1-c1nc2c(c(=O)[nH]1)Cc1cc(Br)cc(OC)c1O2 was read as Mtb H37Rv -19%.
For Cc1cc(OC(=O)c2ccc(Cl)c([N+](=O)[O-])c2)c([N+](=O)[O-])c(=O)[nH]1 the results were Mtb H37Rv 0%.
`COc1ccc(-n2nnc(-c3nc(-c4ccccc4)no3)c2N)cc1Cl` gave Mtb H37Rv -10%.
CC(C)(C)NS(=O)(=O)c1cc2c3c(c1)CCN3C(=O)CC2 was read as Mtb H37Rv -1%.
For CC1(C)Cc2c(sc(NC(=O)c3cc4ccccc4oc3=O)c2C(N)=O)C(C)(C)N1 the results were Mtb H37Rv 14%.
CC(=O)c1cccc(NC(=O)c2coc3ccccc3c2=O)c1 was read as Mtb H37Rv -1%.
For CN(c1ccccc1)S(=O)(=O)c1ccc(C(=O)Nc2nc(-c3ccccc3)cs2)cc1 the results were Mtb H37Rv 23%.
Cc1cc(OCC(=O)OCCNC(=O)c2ccncc2)ccc1Cl was read as Mtb H37Rv 0%.
Screening COc1ccc(CNC(=O)c2ccc(Cl)cc2[N+](=O)[O-])cc1 returned Mtb H37Rv 2%.
`Fc1ccc(Nc2nc(NCc3ccc4c(c3)OCO4)nc3nccnc23)cc1` gave Mtb H37Rv -8%.
`Cc1cc(NC(=O)CSc2cn(Cc3ccc(Cl)cc3)c3ccccc23)no1` gave Mtb H37Rv -6%.
`CCOc1ccc(NC(=O)c2c(Cl)ccc(Cl)c2OC)cc1` gave Mtb H37Rv 21%.
`Nc1nc(SCC(=O)c2ccc(Cl)cc2Cl)n[nH]1` gave Mtb H37Rv -3%.
Screening CC(=O)N1N=C(c2cccs2)CC1c1ccc(C)o1 (stereo unspecified) returned Mtb H37Rv 0%.
`CCOc1ccc2c(c1)c(=O)c(S(=O)(=O)c1ccc(F)cc1)cn2Cc1cccc(Cl)c1` gave Mtb H37Rv -17%.
Screening CCOc1ccc(-n2c(=O)cc(N3CCN(C(=O)c4ccco4)CC3)[nH]c2=O)cc1 returned Mtb H37Rv -2%.
CC1=C(C(N)=O)C(c2ccccc2)n2nc(-c3ccc(O)cc3)nc2N1 (stereo unspecified) was read as Mtb H37Rv -6%.
For CCN1C(=O)c2cccc3c(NC(=O)COc4ccc(Cl)cc4)ccc1c23 the results were Mtb H37Rv 10%.
For COc1ccc(-c2nnc(NC(=O)c3ccc4c(c3)OCO4)s2)c(OC)c1 the results were Mtb H37Rv 2%.
Screening O=C(Nc1cccc(-c2ccc3nncn3n2)c1)c1cccc(C(F)(F)F)c1 returned Mtb H37Rv -2%.
For COc1ccc(/C=C2\SC(=S)N(CC(=O)Nc3ccc(O)c(C(=O)O)c3)C2=O)cc1OC the results were Mtb H37Rv -11%.
For Nc1nc(SCc2cc(=O)[nH][nH]2)nc2sc3c(c12)CCCC3 the results were Mtb H37Rv 2%.
`Cc1ccc(-c2nnc(NC(=O)c3ccc(S(=O)(=O)N(C)C)cc3)s2)cc1` gave Mtb H37Rv 1%.
`COc1ccccc1Cn1cc2c(-c3ccc(C)cc3)nnc-2c2cc(C)ccc21` gave Mtb H37Rv 3.5µg/mL*.
O=C(Nc1nnc(-c2ccco2)o1)c1ccccc1F was read as Mtb H37Rv 6.7µg/mL*.
`Cc1nn2c(=O)c(C(=O)O)cnc2s1` gave Mtb H37Rv -3%.
Cc1nc(CC(=O)c2c(C)cc(O)cc2O)cs1 was read as Mtb H37Rv -9%.
O=C1CCc2cc(S(=O)(=O)NCc3ccccn3)cc3c2N1CC3 was read as Mtb H37Rv -3%.
`CCC(CC)C(=O)Nc1nnc(C)s1` gave Mtb H37Rv 8%.
For Cc1ccc(-c2csc(NC(=O)c3ccc4c(c3)OCCO4)n2)c(C)c1 the results were Mtb H37Rv 10%.

Compounds shown so far containing a cyano group (3):
CCOc1ccccc1N/C=C(\C#N)c1nc(-c2cc3ccccc3oc2=O)cs1 was read as Mtb H37Rv -4%.
N#C/C(C(=O)NCc1ccccc1)=C1/SC(Cc2ccc(Br)cc2)C(=O)N1c1ccc(F)cc1 (stereo unspecified) was read as Mtb H37Rv 1%.
COc1ccccc1C1CC(=O)NC(SCC(N)=O)=C1C#N (stereo unspecified) was read as Mtb H37Rv 8%.

The list goes on.
Cc1cccc(C(=O)Nc2ccc(C(=O)CN3C(=O)CSC3=O)cc2)c1 was read as Mtb H37Rv -15%.
`CCc1ccc(C(=O)c2cn(CC(=O)Nc3ccc(Cl)cc3)c3ccc(F)cc3c2=O)cc1` gave Mtb H37Rv 66%.
For COc1ccc(NC(=O)CSc2nc3ccccc3o2)cc1 the results were Mtb H37Rv 62%.
CCCCCCCn1c(SCCC(C)C)nc2c1c(=O)[nH]c(=O)n2C was read as Mtb H37Rv 46%.
Screening O=C(O)CC1C(=O)NCCN1Cc1cccc(C(F)(F)F)c1 (stereo unspecified) returned Mtb H37Rv 2%.
Screening O=C(Nc1c(C(=O)Nc2cccc(Cl)c2)oc2ccccc12)c1ccccc1F returned Mtb H37Rv 1%.
Screening O=C1CN(C(=O)c2cc3ccccc3oc2=O)C(c2ccc(F)cc2)c2cc(Br)ccc2N1 (stereo unspecified) returned Mtb H37Rv inconclusive.
For COC(=O)c1ccc(/C=C(\C#N)c2nc(-c3ccc4c(c3)OCO4)cs2)cc1 the results were Mtb H37Rv 7%.
CC(=O)c1ccc(N2CCN(C(=O)NC3CC(=O)N(c4ccc(Cl)cc4)C3)CC2)cc1 (stereo unspecified) was read as Mtb H37Rv 4%.
`CCSc1nc2c([nH]c3ccccc32)c(=O)n1-c1ccccc1` gave Mtb H37Rv 35%.
For CC1=C(C(=O)Nc2ccc(Cl)cc2)C(c2ccco2)C(C#N)=C(SCc2ccccc2)N1 (stereo unspecified) the results were Mtb H37Rv 7%.
`COc1ccc2nc(NC(=O)c3cc4ccccc4cc3OC)sc2c1` gave Mtb H37Rv 1%.
COc1cccc(-c2nnc(NC(=O)c3ccc4c(c3)CCCC4)o2)c1 was read as Mtb H37Rv 5.5µg/mL*.
For C=C(C)Cn1c(N2CCN(Cc3ccc(Cl)cc3)CC2)nc2c1c(=O)[nH]c(=O)n2C the results were Mtb H37Rv 4%.
Screening COc1ccc(-n2c(=O)[nH]c3c(C(N)=O)nc(-c4ccccc4F)nc32)cc1OC returned Mtb H37Rv -13%.
For COc1ccc(-c2nc(C(N)=O)c3[nH]c(=O)n(-c4ccccc4F)c3n2)c(OC)c1 the results were Mtb H37Rv 3%.
For Cc1ccnc(NC(=O)NC2CC(=O)N(c3ccc(F)cc3)C2)c1 (stereo unspecified) the results were Mtb H37Rv 11%.
`Cc1ccc(CNC(=O)CSc2cc(C)[nH]c(=O)n2)cc1` gave Mtb H37Rv 4%.
Screening Cc1ccc(Nc2nn(CCC(=O)O)c(=S)n2-c2ccc(C)cc2)cc1 returned Mtb H37Rv -1%.
Screening COc1cc(C(=O)NCCn2nc(-c3ccccc3)ccc2=O)cc(OC)c1OC returned Mtb H37Rv -11%.

Entries listed so far with a nitro group on carbon, in the order listed:
O=C(c1ccco1)N1CCN(C(=O)c2cc3cc([N+](=O)[O-])ccc3oc2=O)CC1 was read as Mtb H37Rv -10%.
For Cc1cc(OC(=O)c2ccc(Cl)c([N+](=O)[O-])c2)c([N+](=O)[O-])c(=O)[nH]1 the results were Mtb H37Rv 0%.
Screening COc1ccc(CNC(=O)c2ccc(Cl)cc2[N+](=O)[O-])cc1 returned Mtb H37Rv 2%.

Later entries.
For CCSc1ccc(CC(=O)Nc2nnc(-c3ccc4c(c3)OCCO4)o2)cc1 the results were Mtb H37Rv 3.6µg/mL*.
For O=C(Nc1nnc(-c2cccs2)o1)C1CC1 the results were Mtb H37Rv inconclusive.
Screening COc1cc2ccccc2cc1C(=O)Nc1sc2c(c1C#N)CCN(Cc1ccccc1)C2 returned Mtb H37Rv 4%.
Screening CCC(C)N1C(=O)c2ccc(C(=O)OCC(=O)Nc3cc(Cl)ccc3Cl)cc2C1=O (stereo unspecified) returned Mtb H37Rv 4%.
For O=C(Nc1c(C(=O)c2ccc3c(c2)OCO3)oc2ccccc12)c1ccc(Br)o1 the results were Mtb H37Rv 9%.
Screening CC1CCN(S(=O)(=O)c2ccc(C(=O)Nc3nnc(-c4cc(Cl)ccc4Cl)o3)cc2)CC1 returned Mtb H37Rv 35µg/mL*.
CN(Cc1ccccc1)S(=O)(=O)c1ccc(C(=O)Nc2sc3c(c2C#N)CCCC3)cc1 was read as Mtb H37Rv -10%.
CCOC(=O)c1ccc(-n2c(C)cn3c4c(=O)n(Cc5ccccc5F)c(=O)n(C)c4nc23)cc1 was read as Mtb H37Rv -7%.
For CCCCCSc1nc2c(c(=O)[nH]c(=O)n2C)n1CCOCC the results were Mtb H37Rv 10%.
Screening Cc1ccc(C(=O)Oc2ccc(/C=C(\C#N)C(=O)Nc3ccccc3F)cc2)cc1 returned Mtb H37Rv 4%.
COCCn1c(=O)c2c(nc3n(-c4cc(C)ccc4C)c(C)c(C)n23)n(C)c1=O was read as Mtb H37Rv -12%.
`O=C(CSc1nc2c(c(=O)n1-c1ccc([N+](=O)[O-])cc1)SCC2)N1CCc2ccccc21` gave Mtb H37Rv -7%.
Screening CCOC(=O)c1[nH]c2ccccc2c1NC(=S)Nc1ccc(C(F)(F)F)cc1 returned Mtb H37Rv 77%.
Screening Cc1ccc(N2CC(NC(=O)NCCN3CCOCC3)CC2=O)cc1C (stereo unspecified) returned Mtb H37Rv -5%.
For Cn1c(=O)[nH]c(=O)c2c1nc(N1CCN(Cc3ccccc3F)CC1)n2Cc1ccccc1F the results were Mtb H37Rv -8%.
For CCOC(=O)c1ccccc1NC(=O)/C(C#N)=C/c1ccc(OC(=O)c2ccc(C)cc2)cc1 the results were Mtb H37Rv -17%.
For Cc1ccc(C)c(-c2nnc(NC(=O)c3ccc([N+](=O)[O-])o3)o2)c1 the results were Mtb H37Rv 1.3µg/mL*.
`CCOC(=O)c1nn(-c2ccc(C)cc2)c(=O)c2c(NC(=O)c3ccc(S(=O)(=O)N(CC)CC)cc3)scc12` gave Mtb H37Rv -2%.

Three compounds out of the list, ordered by heavy-atom count, falling.
Screening CC1CCN(S(=O)(=O)c2ccc(C(=O)Nc3nnc(-c4cc(Cl)ccc4Cl)o3)cc2)CC1 returned Mtb H37Rv 35µg/mL*.
COCCn1c(=O)c2c(nc3n(-c4cc(C)ccc4C)c(C)c(C)n23)n(C)c1=O was read as Mtb H37Rv -12%.
Screening CCOC(=O)c1[nH]c2ccccc2c1NC(=S)Nc1ccc(C(F)(F)F)cc1 returned Mtb H37Rv 77%.
